# D2 potentiator: human D2 receptor positive allosteric modulation; P14416; potentiation, % (no concentration beside the values); hit rate 0.23% among 360,000; DiscoveRx D2 beta-arrestin cells, luminescence, 90 min; 100% = 57 uM dopamine signal; active = potentiation of 50% or more; inconclusive = 30% to 50%; inactive = 30% or less;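 also: compound concentration not given in the record; tested on top of an EC20 dose of dopamine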
# Target sequence (P14416 whole entry, looked up): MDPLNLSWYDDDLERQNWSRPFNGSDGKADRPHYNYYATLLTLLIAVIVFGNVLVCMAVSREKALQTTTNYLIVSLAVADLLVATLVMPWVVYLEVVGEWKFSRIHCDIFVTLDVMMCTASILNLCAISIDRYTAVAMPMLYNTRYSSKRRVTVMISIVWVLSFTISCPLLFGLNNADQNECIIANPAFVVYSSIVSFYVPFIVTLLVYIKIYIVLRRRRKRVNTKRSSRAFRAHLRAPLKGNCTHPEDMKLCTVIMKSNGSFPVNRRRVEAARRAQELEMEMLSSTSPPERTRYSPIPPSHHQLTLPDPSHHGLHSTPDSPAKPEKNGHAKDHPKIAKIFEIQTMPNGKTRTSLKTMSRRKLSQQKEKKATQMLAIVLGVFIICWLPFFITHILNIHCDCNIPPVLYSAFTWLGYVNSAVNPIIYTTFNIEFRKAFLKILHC
#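 PathHunter D2 cells, attached overnight at 37 deg C, received compound in DMSO plus dopamine at EC20 (50 nM final) for 90 min at 37 deg C. Beta-arrestin recruitment was read as luminescence after 1 h with detection reagent at ambient temperature.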
# Six1-Eya2 blk: inhibitors of human Six1/Eya2 interaction | Q15475+O00167 | AlphaScreen GST-Six1/His-Eya2 binding, biochemical; stronger effect = lower value; control for the full effect not named in the record | activity change, % (no concentration beside the values) | hit rate 0.56% among 360,000 | AID 651725; in the data active = activity change below about -65%; inconclusive = about -30% to -65%; inactive = above about -30%; also: % is scaled to controls: 0 for no effect and ±100 for the full control effect; compound concentration not given in the record
#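 AlphaScreen luminescence read after one hour at 37 °C in darkness. Pin-transferred compounds met GST-Six1 and His-Eya2 protein (5X stock 250 nM/500 nM) plus glutathione donor and Ni-chelate acceptor beads (5X, 50 ug/mL).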
# TRPML1 inh: human mucolipin-1 channel inhibition; Q9GZU1; TRPML1-inducible cells, Ca2+ dye fluorescence, FDSS; stronger effect = lower value; inhibition of EC80 agonist-evoked calcium signal; activity change, negative = inhibition, % (test concentration not listed); hit rate 0.02% among 390,000; AID 624415; in the data active means activity change below about -50%; inconclusive means about -30% to -50%; inactive means above about -30%;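 also: stimulus is agonist 54-4 at its EC80 concentration; % is scaled to controls: 0 for no effect and ±100 for the full control effect; compound concentration not given in the record; the text of the record puts the active cut at -80%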
# Target sequence (Q9GZU1 whole entry, looked up): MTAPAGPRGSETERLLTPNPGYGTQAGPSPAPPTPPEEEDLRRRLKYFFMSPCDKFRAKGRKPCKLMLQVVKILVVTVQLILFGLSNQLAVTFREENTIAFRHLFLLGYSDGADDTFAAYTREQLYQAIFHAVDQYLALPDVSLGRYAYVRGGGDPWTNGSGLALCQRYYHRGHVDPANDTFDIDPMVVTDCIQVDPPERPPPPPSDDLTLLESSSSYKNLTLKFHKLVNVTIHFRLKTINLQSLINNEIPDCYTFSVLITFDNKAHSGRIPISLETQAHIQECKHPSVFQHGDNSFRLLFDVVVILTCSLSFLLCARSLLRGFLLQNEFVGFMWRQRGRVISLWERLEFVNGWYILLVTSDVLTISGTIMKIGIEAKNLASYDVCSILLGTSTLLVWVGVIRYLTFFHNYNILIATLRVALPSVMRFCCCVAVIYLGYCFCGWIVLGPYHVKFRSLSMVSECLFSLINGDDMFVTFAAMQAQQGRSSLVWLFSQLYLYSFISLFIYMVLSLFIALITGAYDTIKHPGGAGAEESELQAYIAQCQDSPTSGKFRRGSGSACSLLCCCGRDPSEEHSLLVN
#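 Calcium fluorescence in TRPML1-DL cells induced overnight with Tet: a 110 s read after compound pin addition, then a 110 s antagonist read after challenge with 54-4 at 4 uM final (EC80).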
# PINK1 modulator: changes PINK1 expression | PINK1 immunofluorescence, high-content cytometry, 24 h | Potency, µM (titrated, usually from 76.6 µM), inactives show at the highest dose activation (PINK1 increase), usual class: activators | hit rate 0.2% among 410,000 | AID 624263; active = well fitted activation curve with a large enough effect; inconclusive = small, poorly fitted or top-dose-only effect; inactive = flat fitted curve, though single readings scatter; cell line not stated here;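 also: potency is read from the fitted curve at half-maximal effect; % of control where 0% means no effect; nearly all actives have a fitted effect of over 65% in size; a mitochondrial uncoupler was the plate control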
#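 Fluorescence from anti-PINK1 antibody, together with nuclear and cell stains, was scanned on a laser-scanning cytometer. Before staining, stable-line cells were incubated 24 hours with compounds at 5 concentrations; primary antibody 12 h at 10 degrees C.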
# TRPML1 agonist: agonists of human TRPML1 channel; Q9GZU1; TRPML1-expressing cells, Ca2+ dye fluorescence, FDSS; host cell line not named in the record; reference of the full effect not given here; activation, % (concentration not given with the values); hit rate 0.12% among 410,000; in the data active = activation above about 50%; inconclusive = about 30% to 50%; inactive = below about 30%; also: 0% is about no effect; the text of the record puts the active cut at 80%
#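 Calcium fluorescence on an FDSS kinetic reader gave the read-out. Tet-induced TRPML1-DL cells were plated overnight, dye-loaded (Ca8 with quencher, 45-90 min, room temperature, dark), then read 110 s after compound addition, and again 110 s after 4uM final 54-4 (EC80).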
# D2 ag: agonists of human D2 dopamine receptor (beta-arrestin) | P14416 | DiscoveRx PathHunter D2 beta-arrestin, luminescence, 90 min; 100% = 57 uM dopamine signal | activation, % (test concentration not listed) | hit rate 0.084% among 360,000 | AID 624465; in the data active = activation above about 40%; inconclusive = about 15% to 40%; inactive = below about 15%; also: compound concentration not given in the record; the text of the record calls up to 30% inactive
#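 Agonist mode: compounds alone added to overnight-plated D2 PathHunter cells for 90 min at 37 C, with 57 uM final dopamine (EC100) defining full response. Beta-arrestin recruitment detected by chemiluminescent reagent, read after 1 h at ambient temperature.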
# * hit, by the source's call; ? = inconclusive; . = not tested or not shown; & = joins results of further samples; [ ] = remark or other dose.
# Value order: Six1-Eya2 blk	TRPML1 inh	D2 ag	D2 potentiator	PINK1 modulator	TRPML1 agonist
- CCC1CC(CSC(=N)N)OC1=O (stereo unspecified)
    0	-1	-5.9	0	0.1%	-0.3
- Cn1c2ccccc2c2cnn(CC(=O)Nc3ccccc3C(F)(F)F)c(=O)c21
    .	21	.	.	1.7%	2.4
- COP(=O)(OC)c1ccc(NCc2cc(O)ccc2O)cc1
    3	-15	8.9	?	3.0%	0.3
- c1ccc(CSc2ccc(-c3ccccn3)nn2)cc1
    -91*	4	4.4	2	3.1%	1.3
- COc1cccc(C(=O)CC(C(=O)O)c2ccc(Cl)cc2)c1 (stereo unspecified)
    3	-7	-0.3	-6	-0.3%	0.1
- COC(=O)C(NC(C)=O)(Nc1nc2c(s1)CCCC2)C(F)(F)F (stereo unspecified)
    -1	-25	-1.7	-1	-1.4%	-0.8
- Cc1ccc(CN2C(=O)c3ccccc3Sc3ccc(C(=O)NC4CCCCC4)cc32)cc1
    .	66	.	.	3.2%	2.3
- CCCN(C(=O)c1ccc(N2CCCC2=O)cc1)C1CCS(=O)(=O)C1 (stereo unspecified)
    15	11	-1.9	-6	3.1%	0.5
- CCn1c(=O)cc(SCC(=O)NCCc2ccc(OC)cc2OC)c2ccccc21
    .	-14	.	.	0.7%	1.7
- COc1cc(CN2CCCC(CO)(Cc3ccccc3)C2)ccc1O (stereo unspecified)
    13	23	2.4	-10	-0.1%	0.7
- CSc1nc2[nH]c(=O)n(O)c(=O)c2n1Cc1ccccc1
    -1	-22	-2.6	0	?	1.2
- CSc1nc(SC(C)C(=O)O)c2c3c(sc2n1)COC(C)(C)C3 (stereo unspecified)
    -6	36	-3.9	-3	-0.2%	1.3
- N=C(CC1CC(=O)NC(=O)C1)C1=C(O)CCCC1=O
    14	0	-1.4	-3	-2.1%	0.9
- COc1ccc(/C=C/C(=O)NC(=S)Nc2ccc(S(=O)(=O)N=C(N)N)cc2)cc1OC
    3	-7	-3.7	-5	2.0%	-0.2
- O=C(Nc1ccc(Oc2ncnc3cc(Cl)ccc23)nc1)Nc1cccc(C(F)(F)F)c1
    -1	-8	-0.8	-13	0.9%	-0.3
- COCCCNC(=O)C[C@H]1C[C@H](C(=O)N2CCOCC2)[C@@]2(CCC3CCCC3)c3[nH]c4cc(CCC(=O)N(C)C)ccc4c3CCN2C1=O
    -1	6	-4.3	-5	-0.5%	-0.4
- CCN1C(=O)[C@H]2[C@@H](c3ccc(-c4ccc(OC)cc4)cc3)N3CCC[C@@]3(C(=O)OC)[C@H]2C1=O
    0	4	-1.8	-5	0.8%	-0.1
- CCOC(=O)C1CCCN(C(=O)c2cc3c(Cl)nc4ccccc4c3s2)C1 (stereo unspecified)
    .	38	.	.	1.0%	3.9
- COC(=O)c1ccccc1NC(=O)N1CCN(C(=O)c2ccco2)CC1
    -1	16	-4.7	-15	-0.4%	-0.4
- Cc1ccc(-n2c(=O)[nH]cc(C(=O)N3CCc4ccccc43)c2=O)cc1
    3	-16	0.2	-8	1.0%	-0.2

# Taken from above:
# For D2 potentiator, `CSc1nc(SC(C)C(=O)O)c2c3c(sc2n1)COC(C)(C)C3` (stereo unspecified) has the entry -3
# For TRPML1 agonist, `CCn1c(=O)cc(SCC(=O)NCCc2ccc(OC)cc2OC)c2ccccc21` has the entry 1.7
# For PINK1 modulator, `c1ccc(CSc2ccc(-c3ccccn3)nn2)cc1` has the entry 3.1%

# The listing picks up; the 2 compounds before the break are reprinted first.
# Value order: Six1-Eya2 blk	TRPML1 inh	D2 ag	D2 potentiator	PINK1 modulator	TRPML1 agonist
- COC(=O)c1ccccc1NC(=O)N1CCN(C(=O)c2ccco2)CC1
    -1	16	-4.7	-15	-0.4%	-0.4
- Cc1ccc(-n2c(=O)[nH]cc(C(=O)N3CCc4ccccc43)c2=O)cc1
    3	-16	0.2	-8	1.0%	-0.2
- CCN(C(=O)COC(=O)/C=C/c1cnc2ccccc2n1)C1CCS(=O)(=O)C1 (stereo unspecified)
    2	-6	-4.2	-30	1.6%	-0.7
- O=C1Cc2ccccc2C(c2ccc(Cl)cc2Cl)N1 (stereo unspecified)
    0	-6	-1.0	-11	0.5%	1.0
- COc1cc2cc(C(c3nnnn3C3CCCC3)N3CCCCC3)c(=O)[nH]c2cc1OC (stereo unspecified)
    1	-3	-0.7	-6	?	-0.3
- Cc1ccc(OCC(=O)Nc2ccccc2-c2ccccc2NC(=O)COc2ccc(C)cc2)cc1
    2	-10	-1.3	-9	1.7%	0.3
- O=C(O)c1ccc2c(c1)C(=O)N(NC(=O)c1ccc(O)cc1)C2=O
    19	-6	-3.6	3	0.0%	-0.3
- CCOC(=O)CNC(=O)CSc1ncnc2c1cnn2-c1ccc(C)cc1
    4	23	1.0	-3	1.8%	0.0
- CC1CN(C(=O)N2c3ccccc3Sc3ccccc32)CC(C)O1 (stereo unspecified)
    2	-16	-0.7	-1	0.7%	1.8
- CCn1c(=N)c(C(=O)NC2CCCCC2)cc2c(=O)n3cccc(C)c3nc21
    .	-13	.	.	0.4%	-0.9
- CC(C)Oc1cccc(-c2cc(C(=O)NC(=S)N(C)c3ccccc3C(=O)O)c3ccccc3n2)c1
    -7	-7	-0.1	4	-0.9%	-0.2
- Cc1ccc2cccc(S(=O)(=O)N3CCN(c4cccc(Cl)c4)CC3)c2n1
    -14	30	-1.6	3	2.8%[38.3 µM]	1.5
- Cc1ccc(-c2nc(C(=O)NCCCN(C)C)cc3c2[nH]c2ccccc23)cc1
    -2	5	-4.4	-53	0.1%	-0.4
- O=C(Nc1ccc(Br)cc1)C1CCN(c2cnccn2)CC1
    -1	-5&-6	-1.9	-31	2.2%&2.8%	-1.2&-0.6
- CC[C@]1(C(=O)OC)[C@H]2C(=O)N(Cc3ccccc3)C(=O)[C@H]2[C@H]2CN=C(SCC3CC3)N21
    2	-16	0.0	-4	0.9%	-0.7
- CC1=C(C(=O)N2CCCCCC2)CC(CC(=O)NC2CCCC2)C(=O)N1Cc1ccc(C(C)(C)C)cc1 (stereo unspecified)
    14	.	.	.	-0.8%	0.8
- CCN(C(=O)c1sc2cc(OC)ccc2c1Cl)c1ccccc1
    .	-30	.	.	8.9%	4.9
- O=C(c1cc(-c2ccc(F)cc2)on1)N1CCOCC1
    13	2	-0.6	4	0.7%	-0.2
- CC(C)C[C@H](NC(=O)/C=C/[C@H]1O[C@@H](n2ccc(=O)[nH]c2=O)[C@H](O)[C@@H]1O)C(=O)O
    16	13	-4.0	-6	0.5%	0.5
- CCOc1ccc(Nc2oc(-c3ccccc3Cl)nc2C#N)cc1
    -4	-25	-1.3	0	5.0%[38.3 µM]	0.6
- Cc1cccc(-c2ncc(S(=O)(=O)C(C)(C)C)c(N)n2)c1
    8	-6	-2.6	0	0.3%	?
- O=C(Nc1ccccc1)OCc1cnc(Cl)s1
    8	-9	4.4	-1	3.1%	0.9

# Continued.
# Value order: Six1-Eya2 blk	TRPML1 inh	D2 ag	D2 potentiator	PINK1 modulator	TRPML1 agonist
- Cc1ccc(SCc2nc(-c3ccc(C(=O)Nc4cc(C)ccc4C)cc3)oc2C)cc1
    .	-28	.	.	0.7%	0.5
- CCOC(=O)C1(Cc2ccc(Cl)cc2)CCN(Cc2nccn2CC)CC1
    -5	-11	-6.7	-11	-1.6%	-0.1
- CNC(=O)COC(=O)c1ccc2c(c1)S(=O)(=O)c1ccccc1C2=O
    0	9	7.7	28	2.5%	-0.5
- CCc1ccc(C(=O)/C=C/Nc2ccc(S(=O)(=O)Nc3onc(C)c3C)cc2)cc1
    -21	-7	0.4	-16	1.8%	1.2
- CN(C(=O)CSc1nnnn1-c1ccccc1)C1CCCCC1
    -3	6	-1.7	-10	-0.9%	-0.7
- COCc1ccc(-c2c(-c3cc(OC)cc(OC)c3)oc(=O)c3cc(OC)c(OC)cc23)cc1
    -6	64	-1.8	-6	0.4%	1.0
- CCOC(=O)c1c(NC(=O)c2ccc(N3C(=O)[C@@H]4[C@H](C3=O)[C@H]3C=C[C@@H]4C3)cc2)sc2c1CC(C)CC2 (stereo partly specified)
    22	-24	-1.8	-6	3.5%	1.8
- CCOc1cc(C#N)c(NC(=O)c2cccnc2Cl)cc1OCC
    -1	4	-2.5	-15	-1.9%	-0.8
- Cc1ccc(C(=O)CSc2nnnn2Cc2ccccc2)cc1C
    16	-4	1.8	-2	1.6%	1.0
- CC(CNC(=O)C1CCCCC1C(=O)O)c1ccccc1 (stereo unspecified)
    0	27	-0.5	-1	-1.9%[38.3 µM]	-0.1
- CCn1c(C(C)NC(=O)Cc2ccccc2)nc2ccccc21 (stereo unspecified)
    -12	-10	-2.9	-3	1.9%	1.0
- CCOc1nc(Nc2ccc([N+](=O)[O-])cc2)nc(NC(C)(C)C)n1
    -8	-26	-0.9	-3	8.3%	-0.6
- CCOC(=O)CSc1nnc(-c2ccccc2NC(=O)c2ccccc2)o1
    4	24	-1.2	-10	-2.1%[38.3 µM]	-0.1
- O=C(Cn1c(=O)oc2cc(S(=O)(=O)N3CCCC3)ccc21)Nc1ccc(OC(F)(F)F)cc1
    .	-8	.	.	-0.2%	0.9
- Cn1c(-c2cccs2)nc2ccccc21
    1	-4	0.4	-7	0.0%	-1.2
- Cc1nn2c(=O)cc(CSCC(=O)Nc3ccccc3Cl)nc2s1
    -8	37	6.0	-5	0.5%	0.3
- CCc1ccc(OCc2nnc(SCC(=O)NCc3ccco3)o2)cc1
    0	6	-3.8	-8	-0.1%	-1.0
- Cc1cccc(C)c1-n1nnnc1C(c1ccnc2ccccc12)N(Cc1ccccc1)Cc1ccccc1 (stereo unspecified)
    18	.	.	.	?	0.2
- COc1cccc(CN2CCNC(=O)C2CC(=O)N2CCOc3ccccc3C2)c1OC (stereo unspecified)
    8	8	-1.2	-6	-0.7%	-0.5
- CCOc1ccc(OCCOC(=O)CN(C)S(=O)(=O)c2ccc(NC(C)=O)cc2)cc1
    -4	3	0.4	11	0.8%	0.2

# Next section
# Value order: Six1-Eya2 blk	TRPML1 inh	D2 ag	D2 potentiator	PINK1 modulator	TRPML1 agonist
- CCOc1ccccc1NC1=NC2CS(=O)(=O)CC2S1 (stereo unspecified)
    2	11	2.7	-2	-1.1%	0.4
- Cc1cc(-c2ccccc2)nc2oc3c(c12)NC(=O)CN(c1ccccc1)C3=O
    6	-14	-7.5	-5	2.8%	1.2
- CC(C)Cn1c2c(c(O)c(C(=O)Nc3nc4ccccc4s3)c1=O)CCCC2
    0	11	4.2	4	1.7%	0.3
- COc1ccccc1-c1ccc2c(c1)C(C)(Cc1cccc(C#N)c1)C(=O)N2 (stereo unspecified)
    -10	9	-1.4	-8	26%	-0.7
- CC(C)CC(C(=O)N1CCOCC1)N1Cc2ccccc2C1=O (stereo unspecified)
    0	5	2.2	-7	-1.0%	1.0
- CCc1[nH]nc2c1C(c1ccc(C)o1)C(C#N)=C(N)O2 (stereo unspecified)
    -16	-18	-2.1	11	2.2%	-1.2
- Cc1ccc(CNC(=O)CCn2cc(-c3ccc(C)cc3)nc2-c2ccncc2)cc1
    -10	-2	-2.8	-5	0.4%	0.1

# Compound activity (PubChem BioAssay)
